Screens: PubChem BioAssay, Center for Chemical Genomics, University of Michigan
CDC25B CDK2 inh: human CDC25B-CDK2/CyclinA binding inhibition; P30305+P24941; HTRF CDC25B-CDK2/CyclinA binding, anti-His/anti-Flag; hits give high values; z-score (concentration not given with the values); 0.72% of 94,000 active; AID 1259370;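 also: score is relative to mean and SD of negative controls; strong numbers were not always called active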
TAR Tat displ: HIV-1 TAR-Tat binding disruption; HIV-1 TAR RNA, Tat peptide displacement FRET; hits give high values; z-score (concentration not given with the values); 0.6% of 100,000 active; AID 1259389;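 also: score is relative to mean and SD of negative controls; some compounds called inactive have numbers as strong as hits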
* = called active by the depositor; x = not tested or not shown.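 The calls were made as follows: active = z-score from 3 up in half or more of its runs; inactive = the rest.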

SMILES	CDC25B CDK2 inh	TAR Tat displ
COC(=O)c1c(NC(=O)c2cc(=O)c3cc(C)ccc3o2)sc2c1CCC2	-1.2	0.7
COC(=O)c1c(C)nc2n(CCN3CCOCC3)c3ccccc3n12	-1.7	x
O=C(Nc1nc(-c2nc3ccccc3s2)cs1)c1cccc(N2C(=O)CCC2=O)c1	x	0.71
Cc1nc2nncn2c(Nc2ccc3c(c2)CCC3)c1C	-0.65	-0.79
O=C(CSc1nnc(Cn2c(=O)sc3ccccc32)n1-c1ccccc1)Nc1ccccc1F	-1.1	x
COc1ccc(OC)c(C(=O)c2oc3ccccc3c2NC(=O)CSc2ccccn2)c1	-1.3	1.2
CC1=C(c2ccc(Cl)cc2)S(=O)(=O)NC1=NCc1ccc(C)cc1	-1.4	0.18
CCOC(=O)C1=C(C)NC2=C(C(=O)C(C(=O)OC)C(C)C2)C1c1ccc(OC)c(O)c1 (configuration not stated)	-0.88	0.91
O=C(CSc1nc(-c2ccco2)cc(C(F)(F)F)n1)NCc1cccs1	0.38	0.77
O=C(Nc1ccc(F)cc1F)c1cnn2c3c(cnc12)CCCCC3	x	0.73
CCOC(=O)c1cn[nH]c1S(=O)(=O)Nc1cccc(Br)c1	x	-0.19
C/C=C/Cn1c(N2CCCCC2)nc2c1c(=O)[nH]c(=O)n2C	-0.69	1.1
CCN(CC)CCn1c(-c2ccc(OC)cc2)nc(=S)c2c1CC(C)(C)OC2	-0.05	-0.99
COc1ccc(OC)c(C(=O)c2c(N)c(-c3nc(-c4ccccc4OC)cs3)c3ccccn23)c1	-0.11	-1.5
Cc1ccc(/C(O)=C2\C(=O)C(=O)N(Cc3cccnc3)C2c2cccc(Br)c2)cc1 (configuration not stated)	-3.2	2
O=C(O)C1CSC(c2cccc3ccccc23)N1 (configuration not stated)	x	1.2
CCCCC(=O)Nc1c2c(nn1-c1cccc(Cl)c1)CS(=O)(=O)C2	x	2.5
Cn1ncc2c(NNC(=S)Nc3ccc(F)cc3F)ncnc21	-3	x
CSCCC(CC(=O)O)NC(=O)c1cccs1 (configuration not stated)	-0.33	x
CCOc1ccc(/C(O)=C2\C(=O)C(=O)N(CCN(C)C)C2c2ccc(OC)cc2)c(C)c1 (configuration not stated)	-0.86	0.86
N#Cc1ccc2c(c1)N(CCCN1CCC(O)CC1)c1ccccc1S2	x	-1.7
COC(=O)C1=C(C)NC(=O)NC1c1ccc2c(c1)OCO2 (configuration not stated)	0.89	x
CC(C)c1nn2cc(-c3ccc4c(c3)CCCC4)nc2s1	-0.99	0.76
CC1CSc2ccc(S(=O)(=O)N3CCCc4ccccc43)cc2NC1=O (configuration not stated)	x	0.62
Cc1cccc(N(C)c2cc(C)nc3nc(-c4ccco4)nn23)c1	x	1.7
O=C(CSc1nnc(-c2ccc(O)cc2)o1)c1ccc(Cl)cc1	-14	-1.1
Cc1cccc(N(C)S(=O)(=O)c2cc(-c3csc(C)n3)ccc2C)c1	x	0.59
N#Cc1nc(COc2ccccc2F)oc1N1CCN(c2ccccc2)CC1	-0.79	0.08
CCOC(=O)N1CCC(NS(=O)(=O)c2cc(Br)cc3c2N(C(=O)CC)CC3)CC1	-0.6	0.35
CCOc1cc(C2C(C(=O)OC(C)C)=C(C)N=C3SCCC(=O)N32)ccc1OC(C)=O (configuration not stated)	-0.09	-0.18
CC(C)Cn1cc(NC(=O)NCc2ccco2)c2ccccc2c1=O	x	-0.03
c1ccc(C2Nc3ccccc3C3OCCC23)cc1 (configuration not stated)	1.3	x
Fc1ccccc1CSc1ccc(-c2cccs2)nn1	x	2.3
COC(=O)C1=C(C(=O)c2ccccc2)C(c2ccc(OC)cc2OC)n2nnnc2N1 (configuration not stated)	-1.4	-1.3
C=CCn1c(=O)c2c(nc3n2CCS3)n(C)c1=O	-1.1	0.7
c1ccc(-c2cc(NCc3ccc4c(c3)OCO4)n3cnnc3n2)cc1	0.72	1
CC1=C(C(=O)NC2CCCc3ccccc32)C2(CCCCC2)OC1=O (configuration not stated)	-0.71	-0.2
Cc1ccc(S(=O)(=O)n2nc(OC(=O)c3ccc(C)c(C)c3)cc2N)cc1	-0.48	0.55
COc1ccc2ccccc2c1C1CC(=O)N2CN(Cc3ccco3)CSC2=C1C#N (configuration not stated)	5.8*	0.91
Cn1c(C(=O)N2CCC(N3CCCCC3)CC2)cc2c(=O)oc3ccccc3c21	x	-0.22

Arranged by count of non-hydrogen atoms (rising): part of the list above
SMILES	CDC25B CDK2 inh	TAR Tat displ
CSCCC(CC(=O)O)NC(=O)c1cccs1 (configuration not stated)	-0.33	x
C=CCn1c(=O)c2c(nc3n2CCS3)n(C)c1=O	-1.1	0.7
c1ccc(C2Nc3ccccc3C3OCCC23)cc1 (configuration not stated)	1.3	x
Fc1ccccc1CSc1ccc(-c2cccs2)nn1	x	2.3
CCOC(=O)c1cn[nH]c1S(=O)(=O)Nc1cccc(Br)c1	x	-0.19
C/C=C/Cn1c(N2CCCCC2)nc2c1c(=O)[nH]c(=O)n2C	-0.69	1.1
O=C(CSc1nnc(-c2ccc(O)cc2)o1)c1ccc(Cl)cc1	-14	-1.1
CC1=C(c2ccc(Cl)cc2)S(=O)(=O)NC1=NCc1ccc(C)cc1	-1.4	0.18
CC(C)Cn1cc(NC(=O)NCc2ccco2)c2ccccc2c1=O	x	-0.03
O=C(CSc1nc(-c2ccco2)cc(C(F)(F)F)n1)NCc1cccs1	0.38	0.77
Cc1ccc(S(=O)(=O)n2nc(OC(=O)c3ccc(C)c(C)c3)cc2N)cc1	-0.48	0.55
CCN(CC)CCn1c(-c2ccc(OC)cc2)nc(=S)c2c1CC(C)(C)OC2	-0.05	-0.99
CCOC(=O)N1CCC(NS(=O)(=O)c2cc(Br)cc3c2N(C(=O)CC)CC3)CC1	-0.6	0.35
O=C(Nc1nc(-c2nc3ccccc3s2)cs1)c1cccc(N2C(=O)CCC2=O)c1	x	0.71
CCOc1cc(C2C(C(=O)OC(C)C)=C(C)N=C3SCCC(=O)N32)ccc1OC(C)=O (configuration not stated)	-0.09	-0.18
COc1ccc(OC)c(C(=O)c2oc3ccccc3c2NC(=O)CSc2ccccn2)c1	-1.3	1.2
O=C(CSc1nnc(Cn2c(=O)sc3ccccc32)n1-c1ccccc1)Nc1ccccc1F	-1.1	x
COc1ccc(OC)c(C(=O)c2c(N)c(-c3nc(-c4ccccc4OC)cs3)c3ccccn23)c1	-0.11	-1.5

Additional records
SMILES	CDC25B CDK2 inh	TAR Tat displ
O=C(CSc1ccc2nc(-c3ccccc3)cn2n1)Nc1ccc2c(c1)OCO2	x	0.18
COc1ccc(OC)c(NC(=O)c2c(N3CCCC3=O)c3cc(OC)ccc3n2C)c1	x	-0.06
Cc1cc(C)c(Cn2cccc2CNC(=O)NC(C)C)c(C)c1	x	0.47
O=C(c1cnn(-c2ccc(F)cc2)c1-n1cccc1)N1CCN(c2ccccc2F)CC1	x	0.22
CC(NS(=O)(=O)c1ccc(Cl)cc1)c1nc(-c2ccccc2)no1 (configuration not stated)	-0.81	2.6
CCC(C)Nc1oc(-c2ccc(COc3ccc(Cl)cc3)o2)nc1C#N (configuration not stated)	-1.1	0
Cc1cc(C)cc(NC(=O)CSc2nncn3c2cc2occc23)c1	x	0.66
Cc1nc2c3ccccc3nc(N3CCN(c4ccccc4F)CC3)n2n1	-0.47	0.51
COc1ccc(-c2cc(-c3ccc(C)cc3)nc(N/N=C/c3cccc(OC)c3O)n2)cc1OC	-1.2	x
CCOC(=O)/C(C#N)=C/Nc1ccccc1Oc1ccc(Cl)cc1Cl	-2	x
O=C(NC1CCCC1)c1nn(-c2ccc(Cl)cc2)nc1CO	2	0.85
Cc1ccc(CSc2nc(C(=O)C(F)(F)F)c3ccccn23)cc1	-1.7	x
CCOC(=O)C1=C(C)NC2=C(C(=O)CC(C)(C)C2)C1c1ccc(OC)cc1OC (configuration not stated)	0.65	0.45
COc1ccc(OCC(O)CN2CCC(C)CC2)cc1 (configuration not stated)	1.9	-0.14
CCOC(=O)C1=C(C(F)(F)F)Nc2ncnn2C1c1ccc(C)cc1 (configuration not stated)	x	1.6
CSc1nsc(SC)c1C(=O)Nc1cc(C(F)(F)F)cc(C(F)(F)F)c1	-2.2	x
CC12CC(NC(=O)N1CCc1ccccc1)c1ccccc1O2 (configuration not stated)	0.96	x
CCN(CC)c1ccn(-c2nc(-c3ccccc3)oc2-c2ccccc2)c(=O)n1	0.74	x
Cc1ccc2oc(SCC(=O)N3CCc4ccccc4C3)nc2n1	x	-0.03
Cc1csc(NC(=O)CSc2nnc(-c3cc4ccccc4o3)n2-c2ccccc2)n1	x	1.3

Single records, as listed above. Order of values: CDC25B CDK2 inh, TAR Tat displ
COc1ccc(OCC(O)CN2CCC(C)CC2)cc1 (configuration not stated) in the list: 1.9, -0.14
CSc1nsc(SC)c1C(=O)Nc1cc(C(F)(F)F)cc(C(F)(F)F)c1 in the list: -2.2, x
Cc1ccc(CSc2nc(C(=O)C(F)(F)F)c3ccccn23)cc1 in the list: -1.7, x

Going on with the list.
SMILES	CDC25B CDK2 inh	TAR Tat displ
CSc1nc2ccc3nc(NC(=O)c4cccs4)sc3c2s1	0.36	x
Cc1noc(-c2ccccc2)c1NC(=O)NCC1COc2ccccc2O1 (configuration not stated)	7*	x
COc1ccc(NC(=O)c2ccc3nn(CC(=O)Nc4ccc(Cl)cc4)c(=O)n3c2)cc1	3.2	1.2
COc1ccc(C2=NN3C(C2)c2cc(OC)ccc2OC32CCCCC2)cc1 (configuration not stated)	-2.5	x
Cc1ccc2cccc(NC(=O)c3oc4ccc(Br)cc4c3C)c2n1	-1.3	1.3
Nc1cccc(/C=C/c2nc3ccc(N)cc3[nH]2)c1	12*	2
O=C(Nc1c(C(=O)N2CCN(c3ncccn3)CC2)oc2ccccc12)C1CCCC1	x	1.7
CS(=O)(=NC(=O)c1cc2ccccc2o1)c1ccc(Cl)cc1 (configuration not stated)	-1.3	x
Fc1ccc(CNc2nc3ccc(Cl)cc3n3cnnc23)cc1	-0.9	0.21
C=CC(C)Sc1nc2c(c(=O)n(C)c(=O)n2C)n1Cc1ccccc1Cl (configuration not stated)	0.81	x
C=CCNS(=O)(=O)c1cc2c3c(c1)C(C)C(=O)N3CCC2 (configuration not stated)	x	-0.17
CCCCOC(=O)C1=C(C)NC2=C(C(=O)CC(C)(C)C2)C1c1cc(Br)c(O)c(OC)c1 (configuration not stated)	-0.74	-0.13
CCOC(=O)c1ccc2c(c1)sc1nc(-c3ccc(OCC)cc3)cn12	-0.58	1
COC(=O)C1=C(OC(=O)C(C)(C)C)c2ccccc2S(=O)(=O)N1C	-1.5	-1
O=C(c1cc(-c2ccc(F)cc2)n[nH]1)N1CCn2c1nc1ccccc12	x	0.04
Cc1c(Cc2ccc(F)cc2)c(=O)oc2cc(OC(=O)c3ccco3)ccc12	-1.4	x
O=C(Nc1ccc2c(c1)OCCO2)C1CCN(c2ncnc3c2nc2n3CCCCC2)CC1	x	0.73
COc1ccc2c(c1)CC(C(=O)N1CCc3ccccc31)CO2 (configuration not stated)	x	0.06
COc1ccc(C2CC(C(F)(F)F)n3nc(C(N)=O)cc3N2)cc1OC (configuration not stated)	-1.1	0.28
Cc1nn(-c2ccccc2)nc1C(=O)ON1C(=O)C2C3C=CC(O3)C2C1=O (configuration not stated)	-1.5	x
Cc1nnc(NC(=O)Cn2c(=O)oc3ccccc32)s1	1.9	0.19
CCn1ncc(C2=NOC(C(=O)NCc3ccc4c(c3)OCO4)C2)c1C (configuration not stated)	-1.2	0.2
O=C(O)CCCCCN1C(=O)CCCC1=O	0.35	1.1
CN(C)c1ccc2nc3c(=O)[nH]c(=O)[nH]c3nc2c1	0.09	-6.3
CC1CCCCC1NC(=O)C1(C)Cn2c(cc3sccc32)C(=O)N1Cc1ccco1 (configuration not stated)	-2.4	2.7
CC(Sc1nc2ncccc2o1)C(=O)Nc1ccc(F)cc1 (configuration not stated)	x	0.44
Fc1ccccc1CSc1ccc2nnc(-c3ccccc3)n2n1	-2.1	x
COC(=O)CN1C(=O)C(=O)c2ccccc21	-0.26	0.41
CCOC(=O)c1sc(NC(=O)C(CC)Sc2nc(C)cc(C)n2)nc1C (configuration not stated)	-0.25	0.13
C/C(O)=C(/N=Nc1ccccc1)C(=O)OCc1ccccc1	-0.82	x
CCSc1nc2n(n1)C(c1ccc(C)cc1)C1=C(CCCC1=O)N2 (configuration not stated)	-2.1	1.6
CCOC(=O)c1nnsc1NC(=O)N1CCN(c2ccccn2)CC1	x	1.1
O=C(NCc1ccccc1)C1=Cc2cc(Br)ccc2OC=C1	0.43	1.6
COc1ccc(-c2nc(N3CCN(c4ccccn4)CC3)c3ccccc3n2)cc1	x	0.66
Nc1ccc(-c2nc3c(Cl)c(N)ccc3[nH]2)cc1	-7.5	3.7*
CC1CCCCN1S(=O)(=O)c1ccc2[nH]c(=O)cc(C(=O)NCCCN3CCCCCC3)c2c1 (configuration not stated)	-1.4	x
O=C(NC1CCCCC1)C1CCN(c2ccc3cc(S(=O)(=O)N4CCCCC4)ccc3n2)CC1	x	0.54
N#C/C(N)=C(/C#N)N=Cc1cccs1	-0.91	x
COc1ccc(-c2noc(CSc3nc(N)c(-c4ccccc4)c(=O)[nH]3)n2)cc1	-1.1	-1.1
Cc1ccc(-c2cnnc(-n3nc(C)c4c3NC(=O)CC4c3cc(C)ccc3C)n2)cc1 (configuration not stated)	-0.71	0.85
Cc1ccccc1NC1=NC(C)(C)N=C(N)N1	0.36	x
CNC(=S)N1CCOC1c1ccc([N+](=O)[O-])s1 (configuration not stated)	-2.2	x
C/C(=N\O)c1cc(Cl)cc(Cl)c1O	-0.69	x
COc1ccc(N2CCN(C(=O)CCS(=O)(=O)c3ccc4c(c3)CCN4C(=O)C3CC3)CC2)cc1	x	1.7
O=C1CC(C(=O)Nc2ccccc2Cl)N=C(Nc2nc3ccccc3s2)N1 (configuration not stated)	-0.9	x
CC(C)c1nn2c(=O)cc(CSc3ncn[nH]3)nc2s1	x	0.27
O=C(O)c1ccc(-n2nnnc2SCC(=O)N2CCOCC2)cc1	-0.99	0.04
COC(=O)c1ccc2nnsc2c1	-1.3	x
O=C(NCC1CCCO1)c1cccc(C(=O)NCC2CCCO2)n1 (configuration not stated)	1.1	1.8
Cc1oc(-c2ccccc2F)nc1CSc1nc2ccncc2[nH]1	0.14	0.11

Compounds as they come. Share with any hit: about 0.9%.
